# High-throughput results (PubChem)
# Beta apoptosis – inhibitors of cytokine-induced beta cell apoptosis, primary screen, luminescence; INS-1E cytokine-induced death, ATP luminescence, 48 h; percent of positive-control rescue, neutral wells zero; protection from apoptosis, % (no concentration beside the values); 300,000 compounds, 0.8% hits;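 active = all replicates at 75% or more, or half of them and the mean; inconclusive = half reach 75% but not the mean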;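 note: 0% = cytokine-treated negative control wells and 100% = positive control rescue; higher means more ATP so stronger rescue from cytokine killing; wells of about 40 µL received 100 nL stock; the first replicate is given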
# Beta2AR agonist – beta2AR agonists driving receptor internalization, primary screen, cell-based, FAP fluorogen, flow cytometry | Beta-2 adrenergic receptor (Homo sapiens), P07550 | 340,000 compounds, 0.43% hits | Am2.2-beta2AR cells; reference of the scale not given here | response, % (concentration not given with the values);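 active = response above a set limit, near 3 SD of response in nonfluorescent compounds, cut at about 42% in these data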;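 note: stock transfer was 100 nL into about 11 µL; a reference agonist was the positive control; negative values mostly stem from fluorescent compounds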
# LANA-H2B inh – blockers of LANA interaction with H2A/H2B – biochemical, FP readout, HTS, primary screen; inhibition, % (no concentration beside the values); Protein LANA1 (Human herpesvirus 8 type P (isolate GK18)), Q9QR71; cell-free LANA-H2A/H2B peptide, fluorescence polarization; AID 2629, 2010; 320,000 compounds, 0.6% hits; in the data active = inhibition mostly above about 10%, no sharp cut-off; inactive = mostly below about 6.7%;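 note: stock transfer was 7.5 nL into about 10 µL; 0% = median of vehicle wells and 100% = median of positive control wells; one replicate is shown; the record names a cut of 25% in any replicate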
# Target sequence (Q9QR71 whole entry, looked up): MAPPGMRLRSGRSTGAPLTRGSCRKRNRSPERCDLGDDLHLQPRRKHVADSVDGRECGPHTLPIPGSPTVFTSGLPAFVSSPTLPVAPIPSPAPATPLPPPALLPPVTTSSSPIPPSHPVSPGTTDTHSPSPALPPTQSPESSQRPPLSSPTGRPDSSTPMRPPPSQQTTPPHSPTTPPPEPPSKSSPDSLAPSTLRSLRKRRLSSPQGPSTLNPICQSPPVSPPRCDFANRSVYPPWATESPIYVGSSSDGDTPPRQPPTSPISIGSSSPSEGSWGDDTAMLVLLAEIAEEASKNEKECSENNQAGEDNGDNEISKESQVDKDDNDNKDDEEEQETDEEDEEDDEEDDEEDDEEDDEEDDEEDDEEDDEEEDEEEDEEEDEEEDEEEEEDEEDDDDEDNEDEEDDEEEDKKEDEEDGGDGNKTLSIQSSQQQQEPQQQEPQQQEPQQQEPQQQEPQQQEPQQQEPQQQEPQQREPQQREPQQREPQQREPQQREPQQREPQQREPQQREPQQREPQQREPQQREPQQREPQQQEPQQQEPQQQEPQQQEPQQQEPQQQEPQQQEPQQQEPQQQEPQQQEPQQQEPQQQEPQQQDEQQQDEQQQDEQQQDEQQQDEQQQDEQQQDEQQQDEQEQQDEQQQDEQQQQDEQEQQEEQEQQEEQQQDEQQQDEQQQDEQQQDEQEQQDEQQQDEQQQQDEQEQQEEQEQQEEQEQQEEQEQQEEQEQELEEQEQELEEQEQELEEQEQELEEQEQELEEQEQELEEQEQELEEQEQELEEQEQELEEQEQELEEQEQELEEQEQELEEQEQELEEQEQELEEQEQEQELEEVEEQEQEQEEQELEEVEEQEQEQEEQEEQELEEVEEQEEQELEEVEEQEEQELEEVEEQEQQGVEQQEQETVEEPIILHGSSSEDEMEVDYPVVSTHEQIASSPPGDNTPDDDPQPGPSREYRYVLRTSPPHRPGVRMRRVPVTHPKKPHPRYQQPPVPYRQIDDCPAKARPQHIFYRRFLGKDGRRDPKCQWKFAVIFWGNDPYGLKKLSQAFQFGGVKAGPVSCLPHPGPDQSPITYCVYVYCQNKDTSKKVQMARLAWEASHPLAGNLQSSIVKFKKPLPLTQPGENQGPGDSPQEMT
# Ecoli rRNA inh – reduced GFP signal of wild-type E. coli, primary screen, bacterial rRNA inhibitor project, GFP/RFP fluorescence, OD600, single point; E. coli WT GFP vs humanized-ribosome RFP mutants, 24 h; stronger effect = lower value; DMSO median 0, no signal -100; GFP signal change (wild-type ribosome), % (concentration not given with the values); 350,000 compounds, 1.6% hits;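 active = significant combined selectivity score with lowered wild-type GFP, culture density cut under 30%, mutant RFP and density less affected; inactive = any of these conditions unmet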; note: one replicate is shown; some compounds called inactive have numbers as strong as hits
# T cruzi repl – inhibitors of intracellular T. cruzi growth, primary screen, luminescence, NIH3T3 host cells. 300,000 compounds, 1.4% hits. inhibition, % (test concentration not listed). T. cruzi beta-gal in NIH3T3, 90 h;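 active = mean inhibition across valid replicates above about 55%, limit read from the data; inconclusive = mean below that limit but half or more replicates reach it; inactive = mean below it, under half of replicates reach it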;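 note: signal also drops with host cell toxicity which is not excluded here; 0% = plate median of DMSO wells and 100% = zero luminescence signal; higher percent means less beta-gal luminescence so fewer parasites; stock transfer was 50 nL into about 50 µL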
# Calb FLC – C. albicans growth inhibition with fluconazole, primary screen, CaCi-2 strain, Alamar Blue fluorescence; C. albicans CaCi-2 (fluconazole-resistant clinical isolate) + fluconazole, 48 h; growth inhibition, % (test concentration not listed); 300,000 compounds, 0.57% hits;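 active = most replicates above 75%; inconclusive = exactly half above 75%; inactive = most below 75%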;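 note: all wells also contain fluconazole at 8 µg/ml as a sub-toxic cotreatment; 0% = median of DMSO wells and 100% = median of geldanamycin control wells; wells of about 8 µL received 7.5 nL stock; the first replicate is given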
# Bfl-1 A1 inh – caspase 3/7 activation in MEF A1-2A-BIM cells, primary screen, A1 inhibitor project, cell-based, luminescence, HTS; 330,000 compounds, 0.066% hits; Caspase-Glo 3/7 luminescence, 3 h; percent of clofoctol response, vehicle zero; caspase activation, % (test concentration not listed);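 active = over half of replicate activation scores above 10%, or exactly half above 10 with the replicate mean above 10; inconclusive = replicate mean below 10 yet half the replicates above 10; inactive = over half of replicates below 10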;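 note: wells of about 30 µL received 50 nL stock; many hits fall short of the cut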
# ALR inh – inhibitors of human ALR sulfhydryl oxidase, primary screen, biochemical, H2O2 detection, HRP-luminol luminescence, single point. FAD-linked sulfhydryl oxidase ALR (Homo sapiens), P55789. 290,000 compounds, 3.8% hits. purified ALR, DTT oxidation. inhibition, % (no concentration beside the values);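 active = mean and each replicate at 75% or more; inconclusive = only one of the two met; inactive = neither met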;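 note: stock transfer was 7.5 nL into about 7.5 µL; 0% = neutral wells and 100% = wells with inactivated enzyme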
# Ecoli rRNA inh OD600 – second read-out of Ecoli rRNA inh, no call of its own (marks repeat the call); OD600 change, %; measured here: OD600 growth;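 optical density of the mix in the first replicate; 0 = DMSO median and -100 = no signal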
# Ecoli rRNA inh RFP – further read-out of Ecoli rRNA inh, marked with its call; RFP signal change, %; measured here: RFP humanized mutant strains;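 first replicate; 0 = DMSO median and -100 = no signal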
# * marks the source's active call; other numbers are inactive results; ? = inconclusive; . = not tested or not shown; & = joins results of further samples. Not all compounds are listed; the hit share may differ from the screen's.
SMILES,Beta apoptosis,Beta2AR agonist,LANA-H2B inh,Ecoli rRNA inh,Ecoli rRNA inh OD600,Ecoli rRNA inh RFP,T cruzi repl,Calb FLC,Bfl-1 A1 inh,ALR inh
O=C(Nc1cc2c3c(c1)C1CCCC1CN3CC1CCCC21)c1ccccc1 (stereo unspecified),40,-9,2.5,.,.,.,60*,89*,0.6,-13
CCc1cccc(C)c1NC(=O)CSc1ncn[nH]1,-8,-1,-0.1,.,.,.,-6,-4,0.8,-3
O=C(Nc1ccccc1N1CCCCC1)c1ccc(N2C(=O)c3ccccc3C2=O)cc1,0,5,0.8,.,.,.,20,-7,-0.5,-10
COc1ccc(S(=O)(=O)NCc2ccccn2)cc1Br,-2,5,-0.9,10,6,-0.9,-6,-2,-0.4,-5
CCOC(=O)CNC(=O)CSc1nnc(NC(=O)c2ccc(S(=O)(=O)N3CCOCC3)cc2)s1,0,-2,-3.8,11,7,2.0,-10,3,-0.3,-7
CCc1noc(C)c1C(=O)OCC(=O)N1CCc2ccccc21,2,-4,0.9,.,.,.,.,.,-0.6,.
CC(C)CCNC(=O)CCCOc1cc(=O)n(C)c2ccccc12,-17,-3,-2.0,-3,-6,-0.7,22,?,0.2,-11
COc1cc2nc(N3CCN(c4cc(C)ccc4C)CC3)nc(N)c2cc1OC,118*,28,-1.8,-61,-80,-21,56*,12,-0.4,2
CCOc1ccccc1NS(=O)(=O)c1ccc2[nH]c(=O)ccc2c1,2,10,1.5,0,11,1.4,7,3,2.5,-3
CCCNC(=O)/C(=C/c1cn(S(=O)(=O)N(C)C)c2ccccc12)NC(=O)c1ccc(OC)cc1,9,-7,-0.5,-26*,-15*,-2.1*,17,54,0.4,3
CCCC(=O)OC/C(O)=C(\C#N)c1nc2ccccc2[nH]1,0,16,1.8,10,3,1.7,-22,11,-0.2,-28
Cn1cc(C(=O)N/N=C/c2ccc([N+](=O)[O-])cc2)c2ccccc21,7,8,-3.0,2,7,0.4,21,-2,0.1,-8
COc1ccc2cc(C(C)C(=O)N3CCC(C)CC3)ccc2c1 (stereo unspecified),0,-7,-7.6,-7,-40,-2.1,26,15,0.6,.
Cc1cccc(C(=O)N(Cc2nc3ccccc3c(=O)[nH]2)C2CCCC2)c1,-12,-7,1.8,-29,-36,-5.7,12,5,0.0,-1
CC(=O)[C@@]1(O)CC[C@H]2[C@@H]3C[C@H](C)C4=CC(=O)CC[C@]4(C)[C@H]3CC[C@@]21C,5,-1,-4.8&1.9,-18,-20,0.2,13,.,-0.6,.
CCOC(=O)c1c(C)[nH]c(C(=O)COC(=O)CNC(=O)C2CCCCC2)c1C,-19,2,3.2,-5,7,-4.3,-5,-5,0.3,4
COc1ccc(C(OC(=O)c2ccco2)C(=O)NC2CCCC2)cc1 (stereo unspecified),-6,0,6.8,20,15,3.1,-9,-2,-0.8,-1
CCOC(=O)N1CCN(C(=O)C2CCCN(S(=O)(=O)c3cc(C)ccc3OC)C2)CC1 (stereo unspecified),-12,0,5.8,-5,4,2.1,8,4,1.5,-2
COC(=O)c1cc(-c2cccc(OC)c2)on1,-2,0,-2.0,.,.,.,-14,1,-0.2,-11
CN(C)c1oc(-c2ccccc2F)nc1C#N,1,0,3.2,-6,-6,-4.0,-21,-9,-0.2,-3
CN(C)C(=S)Nc1cccc(F)c1,-14,-5,-1.5,11,9,1.6,-11,-4,0.3,-26
COc1ccccc1CC(=O)Nc1ncc(C)s1,-6,-4,8.7,-5,6,0.1,-11,-1,2.0,-20
O=C(Cn1cnc2ccccc21)OCC(=O)N1CCCCC1,-1,9,11,10,8,-0.2,.,.,-0.7,-5
COCCn1c(C)cc(C(=O)COC(=O)c2ccc(Cl)c(S(N)(=O)=O)c2)c1C,-3,8,-0.6,0,3,10,4,-9,-0.3,20
Cc1ccc(NC2=C([N+](=O)[O-])CS(=O)(=O)C2)cc1,-9,4,28*,.,.,.,-15,0,-0.6,2
N#Cc1cnn(CC2CCCCC2)c1N,1,4,0.0,.,.,.,-6,2,0.0,-6
CCOc1ccc(NC(=O)CCC(=O)Oc2ccc(C)cc2)cc1,-11,1,-5.5,10,3,-1.2,-12,4,0.0,1
Cc1cccc(N2CCN(CC(=O)Nc3ccc(-n4cnnn4)cc3)CC2)c1C,-1,4,2.9,.,.,.,4,2,-0.5,-2
Cc1nn(C(=O)c2ccccc2)c2c1C(=O)CC(C)(C)C2,-4,7,-0.6,.,.,.,12,6,0.3,52
CCC(C)[C@H](Nc1nc(-c2ccccc2)nc2c1oc1ccccc12)C(=O)O (stereo partly specified),-11,-5,-2.2,.,.,.,-4,1,0.6,.
Cc1ccc(NS(=O)(=O)c2cc(NC(=O)C(C)Oc3ccccc3)ccc2C)c(C)c1 (stereo unspecified),3,14,4.2,.,.,.,7,25,-0.1,-7
O=C([C@@H]1CC=C[C@@H]2CCN(C3CC3)C(=O)[C@@H]21)N1CCN(c2ccccc2)CC1,5,-4,-4.6,3,10,-2.1,-5,8,0.3,.
O=C(CCCN1C(=O)c2ccccc2C1=O)Nc1ccccn1,-2,-1,0.0,.,.,.,-1,-6,-1.0,-1
Cc1cc(Cl)ccc1NC(=O)CN1CCCC1,-3,-2,4.5,11,8,-2.3,-8,12,0.1,.
COc1ccc(-c2cn3cc(C)ccc3n2)cc1Br,5,14,-5.5,-2,6,-0.4,3,-3,-6.2,5
N#Cc1ccc(-c2c(-c3ccccc3)ncc3cc(F)ccc23)cc1,7,2,-1.7,-19,-17,-0.2,.,.,-4.0,0
Cc1cc(C)nc(NC(=O)c2c(C(=O)O)noc2C)n1,6,-4,-2.3,5,4,0.9,-13,-6,0.7,5
Cn1c(N)c(C(=O)CSc2ncn[nH]2)c(=O)n(C)c1=O,0,-21,3.1,11,10,-4.6,-2,0,-0.7,.
CC(C)(C)NC(=O)NC(=O)COC(=O)CNC(=O)c1cccc(F)c1,-5,-1,-0.5,.,.,.,-6,-5,2.4,4
Cc1noc(NS(=O)(=O)c2ccc(N)cc2)c1C,2,9,-3.4,.,.,.,-14,.,0.1,.
Cc1cccc(N/C=C(\[N+](=O)[O-])S(=O)(=O)c2ccccc2)c1,-1,5,2.2,-5,-4,-1.6,33,-32,0.1,-27
Cc1ccc(C(=O)OCC(=O)NNC(=O)COc2ccc(Cl)cc2)c(O)c1,1,-1,-5.0,11,12,1.3,-7,-4,-0.3,-1
O=C(COC(=O)c1ccc(Cl)cc1)NC1CCCCCC1,0,-7,2.7,6,7,1.2,.,.,1.2,0
CC(=O)c1cccc(NC(=O)CN(c2cccc(F)c2)S(C)(=O)=O)c1,.,2,-2.3,.,.,.,.,-2,0.2,.
O=C(c1ccc(OC2CCN(Cc3ccccc3OC(F)F)CC2)cc1)N1CCCC1,-6,-1,4.9,0,-1,0.8,11,-6,0.5,-4
O=C(c1cccs1)N1CCN(S(=O)(=O)N2CCOCC2)CC1,-5,-4,-5.5,.,.,.,6,-3,0.8,-12
C/C(CC(=O)NCC(C)C)=N\NC(=O)COc1cc(C)c(Br)cc1Br,5,-20,-8.4,.,.,.,-23,-13,-0.3,5
Cc1ccc(-c2csc(NC(=O)c3ccno3)n2)cc1,-1,4,-1.2,.,.,.,-11,6,-1.1,-2
O=C(Cn1cnc2c(cnn2-c2ccc(F)cc2)c1=O)NCc1ccco1,3,-6,5.4,.,.,.,-10,-8,0.7,-8
Cn1cc(SCC(=O)NCc2ccc3c(c2)OCO3)c2ccccc21,-1,-4,3.9,-1,-25,-3.4,-4,-1,0.0,27
Cc1sc(NC(=O)C2CCCCC2C(=O)O)c(C(N)=O)c1-c1ccc(C(C)C)cc1 (stereo unspecified),-4,-2,-0.9,.,.,.,2,-6,0.2,38
COc1ccc(-c2c(NC(=O)c3ccco3)n(-c3ccccc3)nc(C)c2=O)cc1,-10,0,-2.3,.,.,.,.,1,-0.2,.
Cc1nc(Oc2ccc(S(=O)(=O)N3CCOCC3)cc2Cl)c2c3c(sc2n1)CCCC3,12,6,-1.2,.,.,.,43,17,-0.4,-9
O=C(Cc1ccccc1)NNC(=O)Nc1ccc(Cl)c(Cl)c1,-13,5,1.0,-20,-16,-6.5,11,18,0.2,-3
CCCCCCn1c(CN2CCN(C(=O)c3ccco3)CC2)nc2c1c(=O)n(C)c(=O)n2C,-2,-11,-4.7,-4,-17,-0.3,10,-1,1.0,.
Cc1nnc(SCC(N)=O)n1CC1CCCO1 (stereo unspecified),1,-2,-7.1,.,.,.,-6,5,0.3,16
CC(=O)c1ccc(S(=O)(=O)NCCC(=O)OCC(=O)NCCc2ccccc2)cc1,6,-11,-1.7,7,7,1.2,-7,4,0.0,-1
COc1cc(CN(C)Cc2nc3cc(C(F)(F)F)ccc3c(=O)[nH]2)ccc1OC(F)F,2,-7,3.5,-21,-26,4.6,-2,-22,0.1,-3
Cc1cc(N)ccc1NC(=O)CN1CCCC1,-8,-8,1.5,-1,0,-1.4,-13,-3,2.8,-6
CCCc1ncc(C(O)c2cccc(OC)c2)n1C (stereo unspecified),-3,-5,0.1,5,1,-0.5,-3,3,-1.9,.

# New compounds follow.
SMILES,Beta apoptosis,Beta2AR agonist,LANA-H2B inh,Ecoli rRNA inh,Ecoli rRNA inh OD600,Ecoli rRNA inh RFP,T cruzi repl,Calb FLC,Bfl-1 A1 inh,ALR inh
COC(=O)c1ccc(CSc2ncnc3c2nnn3-c2ccc(F)cc2)o1,-8,3,-4.3,.,.,.,2,9,0.1,99*
COc1ccc(CN2CCN(S(=O)(=O)c3ccc(F)cc3)CC2)cc1OC,-5,6,5.0,.,.,.,-12,-6,0.1,27
Cc1c(NC(=O)/C(C#N)=C/c2ccc(-c3ccccc3Cl)o2)c(=O)n(-c2ccccc2)n1C,0,31,-2.8,.,.,.,12,-4,0.6,88*
O=c1[nH]ncc(N2CCN(C(c3ccccc3)c3ccccc3)CC2)c1Cl,-3,3,-6.5,.,.,.,32,6,0.1,-50
O=C(CCC1CCCN(C(=O)CCCc2ccccc2)C1)N1CCN(c2ccccn2)CC1 (stereo unspecified),0,-5,-0.4,-9,-6,2.5,14,2,-0.2,.
CC(=O)Nc1cccc(/C(C)=N/NC(N)=S)c1,-5,5,1.0,0,-3,-0.8,5,-12,-0.5,29
CCOC(=O)C1C(=O)CC(C)(O)C(C(=O)OCC)C1c1ccc(Br)o1 (stereo unspecified),-4,.,0.3,.,.,.,-15,-4,1.4,6
COc1ccc(S(=O)(=O)NCc2c(-c3ccccc3)noc2C)c(OC)c1,-12,2,-3.3,21,15,2.1,3,1,-1.0,-3
Cc1ccc(CN2CCCOCCS2(=O)=O)cc1,-5,-3,1.6,18,0,4.3,-12,-16,-0.3,-6
Cc1cccc(NC(=O)CN2C(=O)c3ccccc3S2(=O)=O)n1,-3,-1,1.6,2,-4,-2.1,-10,-3,-1.1,-10
